# High-throughput results deposited in PubChem by several laboratories.
# GPR35 antagonists = GPR35 antagonists blocking zaprinast-driven arrestin recruitment, primary screen, imaging, U2OS, beta-arrestin-GFP, zaprinast agonist (AID 2058) | G-protein coupled receptor 35 (Homo sapiens) | one-dose inhibition, % at 10 µM; IC50 in µM for titrated hits | U2OS GPR35 beta-arrestin-GFP translocation imaging, zaprinast antagonism; higher % means a stronger effect | actives 0.052% (n = 290,000);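 active = inhibition of at least 50% with at least 30 cells and total cytoplasm GFP at most 10,000,000; inconclusive = under 30 cells or total GFP of 10,000,000 plus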
# NOD1 inhibition = NOD1 signaling inhibitors, primary screen, cell-based, luminescence, uHTS (AID 1578); NOD1-driven NF-kB luciferase reporter cells, luminescence; higher % means a stronger effect; inhibition, % at 4 µM, or EC50 in µM where a hit was titrated; actives 1% (n = 290,000); in the data active = inhibition mostly above about 36%, no sharp cut-off; inactive = mostly below about 34%;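 note: HEK-293T reporter cells stimulated with the NOD1 agonist gamma-tri-DAP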
# Myeloid diff MLP = induction of myeloid progenitor differentiation, primary screen, cell-based, flow cytometry, MLPCN library. ER-HoxA9 myeloid progenitors, lysozyme-GFP differentiation. calls only at 10 µM. actives 1% (n = 360,000). AID 624256, 2012;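 active = normalized GFP-positive differentiation at or above the plate's own cutoff, the solvent-only control mean plus 3 SD; inconclusive = no clear call, values can overlap the other calls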;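 note: cells exposed to compound for four days before flow analysis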
# GPR55 LPI antagonism = GPR55 antagonists blocking LPI-driven arrestin recruitment, primary screen, imaging, U2OS, beta-arrestin-GFP, LPI agonist (AID 2013); G-protein coupled receptor 55 (Homo sapiens); U2OS GPR55 beta-arrestin-GFP translocation imaging, LPI antagonism; higher % means a stronger effect; one-dose inhibition, % at 10 µM; IC50 in µM for titrated hits; actives 0.13% (n = 290,000);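 active = spots per cell inhibited over 60%, with over 100 cells counted and total cytoplasm intensity under 500,000; inconclusive = wells with under 100 cells, flagged as likely toxic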;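 note: U2OS cells stably carrying GPR55 and arrestin-GFP stimulated by 5 µM LPI near EC80; imaged beta-arrestin-GFP aggregate spots per cell after agonist stimulation; plate controls were LPI-stimulated DMSO wells for no effect and DMSO wells without LPI for full effect; some results filed as inactive read as strong as hits; confirmed hits need IC50 under 10 µM and bright autofluorescent wells are also inconclusive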
# GPR55 activation = GPR55 agonists via beta-arrestin recruitment, primary screen, imaging, U2OS cells, beta-arrestin-GFP redistribution (AID 1961) | activation, % at 10 µM, or EC50 in µM where a hit was titrated | U2OS GPR55 beta-arrestin-GFP redistribution imaging; higher % means a stronger effect | actives 0.048% (n = 290,000) | G-protein coupled receptor 55 (Homo sapiens);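 active = activation above 40% with more than 50 cells counted in the well; inconclusive = wells holding fewer than 50 cells, flagged as toxic or sparse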;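 note: U2OS osteosarcoma cells stably expressing GPR55 and beta-arrestin-GFP; plate controls were DMSO negative control for no effect and LPI positive control for full effect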
# HIV peptide binding = inhibitors of HIV fusion peptide binding, primary screen, biochemical, uHTS, fluorescence dequenching (AID 1986); cell-free peptide binding, fluorescence dequenching, 30 min; higher % means a stronger effect; one-dose inhibition, % at 20 µM; IC50 in µM for titrated hits; actives 0.3% (n = 290,000); in the data active = inhibition mostly above about 52%, no sharp cut-off; inactive = mostly below about 76%; note: some results filed as inactive read as strong as hits
# NOD2 inhibition = NOD2 signaling inhibitors, cell-based, luminescence, uHTS, HEK293 (AID 1566) | inhibition, % at 4 µM, or EC50 in µM where a hit was titrated | actives 0.63% (n = 290,000) | HEK293 NOD2/NF-kB luciferase reporter, luminescence; higher % means a stronger effect; in the data active = inhibition above about 50%; note: many of its hits are not listed in these tables
# Myeloid diff MLP GFP+ MAC1+ % = second read-out of Myeloid diff MLP, no call of its own (marks repeat the call); GFP+ MAC1+ double positive, %; measured here: differentiation confirmed by MAC1 staining
# * hit, by the source's call; i = inactive; u = inconclusive; x = no result given; & = joins results of further samples. This is a subset (hit frequency here may not be typical).
1) CC(C)NC[C@H](O)c1ccc(O)c(O)c1
2) CCNc1nc(NC(C)C)nc(SCCOc2ccc(C)cc2)n1
3) O=C(Cc1ccccc1)NC(Nc1cccc2ccccc12)C(Cl)(Cl)Cl (stereo not given)
4) COC(=O)[C@H]1[C@H]2C[C@H]3c4[nH]c5ccccc5c4CCN3C[C@H]2CC[C@@H]1O
5) O=C(C1CCCCC1)N1CC(=O)N2CCc3ccccc3C2C1 (stereo not given)
6) CC(=O)Nc1c(I)c(NC(C)=O)c(I)c(C(=O)O)c1I
7) COC(=O)N(C)c1ccccc1C(=O)N1CCOCC1
8) CC(C)C(NC(=O)c1ccc2c(c1)OCO2)C(=O)N/N=C\c1ccco1 (stereo not given)

Assay by compound,1,2,3,4,5,6,7,8
GPR35 antagonists,x,14.0%,1.9%,2.8%,-1.2%,-5.7%,4.6%,19.1%
NOD1 inhibition,x,x,x,15.2%,-21.3%,-21.8%,x,x
Myeloid diff MLP,i,i,i,i,x,i,i,i
Myeloid diff MLP GFP+ MAC1+ %,4.3,0.7,0.9,1.9,x,1.7&1.4,2.2,5.6
GPR55 LPI antagonism,x,2.2%,8.2%,0.5%,1.2%,6.4%,5.9%,5.3%
GPR55 activation,x,-0.3%,0.2%,-0.1%,-0.1%,-0.1%,-0.2%,-0.1%
HIV peptide binding,x,0.9%,-4.3%,0.1%,1.5%,0.9%,-2.5%,-4.2%
NOD2 inhibition,x,-1.4%,-8.0%,17.3%,-5.6%,0.3%,-1.6%,-0.6%

9) CN1c2cccc3cccc(c23)N(C)C1c1cccs1
10) O=c1[nH]cnc2c1ncn2C1CCC(CO)O1 (stereo not given)
11) CSc1ccc2c(c1)N(CCC1CCCCN1C)c1ccccc1S2 (stereo not given)
12) COc1ccccc1-c1c(C)oc2c(CN3CCN(CCO)CC3)c(O)ccc2c1=O
13) Nc1ccn([C@@H]2CS[C@H](CO)O2)c(=O)n1
14) O=[N+]([O-])c1ccc2nccn2c1
15) COc1cc2nc(N3CCN(C(=O)C4CCCO4)CC3)nc(N)c2cc1OC (stereo not given)
16) CCNC(=O)C1CCCN1C(=O)C(CCCN=C(N)N)NC(=O)C(CC(C)C)NC(=O)C(Cc1cn(Cc2ccccc2)cn1)NC(=O)C(Cc1ccc(O)cc1)NC(=O)C(CO)NC(=O)C(Cc1c[nH]c2ccccc12)NC(=O)C(Cc1cnc[nH]1)NC(=O)C1CCC(=O)N1 (stereo not given)

Assay by compound,9,10,11,12,13,14,15,16
GPR35 antagonists,-3.5%,x,6.8%,2.1%,-15.2%,0.0%,5.4%&-5.7%&-3.2%,1.2%
NOD1 inhibition,x,x,-30.7%,x,-4.4%,x,10.8%&-4.0%&2.1%,37.3%
Myeloid diff MLP,i,i,i,i,x,i,i,i
Myeloid diff MLP GFP+ MAC1+ %,0.2,1.0,2.5,1.0,x,0.7,0.8&3.2,3.6
GPR55 LPI antagonism,0.2%,x,39.8%,3.5%,1.5%,-1.1%,23.3%&8.8%&-0.5%,3.0%
GPR55 activation,-0.2%,x,-0.2%,-0.1%,-0.5%,0.9%,-0.2%&-0.2%&-0.5%,0.4%
HIV peptide binding,-5.5%,x,-4.1%,-1.4%,-0.5%,-3.0%,5.3%&-0.5%&-0.8%,0.8%
NOD2 inhibition,12.5%,x,12.9%,2.0%,12.2%,-0.5%,2.5%&13.4%&-11.8%,-0.8%

# Reprinted, entries 3–13
3) O=C(Cc1ccccc1)NC(Nc1cccc2ccccc12)C(Cl)(Cl)Cl (stereo not given)
4) COC(=O)[C@H]1[C@H]2C[C@H]3c4[nH]c5ccccc5c4CCN3C[C@H]2CC[C@@H]1O
5) O=C(C1CCCCC1)N1CC(=O)N2CCc3ccccc3C2C1 (stereo not given)
6) CC(=O)Nc1c(I)c(NC(C)=O)c(I)c(C(=O)O)c1I
7) COC(=O)N(C)c1ccccc1C(=O)N1CCOCC1
8) CC(C)C(NC(=O)c1ccc2c(c1)OCO2)C(=O)N/N=C\c1ccco1 (stereo not given)
9) CN1c2cccc3cccc(c23)N(C)C1c1cccs1
10) O=c1[nH]cnc2c1ncn2C1CCC(CO)O1 (stereo not given)
11) CSc1ccc2c(c1)N(CCC1CCCCN1C)c1ccccc1S2 (stereo not given)
12) COc1ccccc1-c1c(C)oc2c(CN3CCN(CCO)CC3)c(O)ccc2c1=O

Assay by compound,3,4,5,6,7,8,9,10,11,12
GPR35 antagonists,1.9%,2.8%,-1.2%,-5.7%,4.6%,19.1%,-3.5%,x,6.8%,2.1%
NOD1 inhibition,x,15.2%,-21.3%,-21.8%,x,x,x,x,-30.7%,x
Myeloid diff MLP,i,i,x,i,i,i,i,i,i,i
Myeloid diff MLP GFP+ MAC1+ %,0.9,1.9,x,1.7&1.4,2.2,5.6,0.2,1.0,2.5,1.0
GPR55 LPI antagonism,8.2%,0.5%,1.2%,6.4%,5.9%,5.3%,0.2%,x,39.8%,3.5%
GPR55 activation,0.2%,-0.1%,-0.1%,-0.1%,-0.2%,-0.1%,-0.2%,x,-0.2%,-0.1%
HIV peptide binding,-4.3%,0.1%,1.5%,0.9%,-2.5%,-4.2%,-5.5%,x,-4.1%,-1.4%
NOD2 inhibition,-8.0%,17.3%,-5.6%,0.3%,-1.6%,-0.6%,12.5%,x,12.9%,2.0%

13) Nc1ccn([C@@H]2CS[C@H](CO)O2)c(=O)n1

Assay by compound,13
GPR35 antagonists,-15.2%
NOD1 inhibition,-4.4%
Myeloid diff MLP,x
Myeloid diff MLP GFP+ MAC1+ %,x
GPR55 LPI antagonism,1.5%
GPR55 activation,-0.5%
HIV peptide binding,-0.5%
NOD2 inhibition,12.2%

# Along the list, from the results shown.
# Myeloid diff MLP GFP+ MAC1+ %, compounds 9 to 12: 0.2, 1.0, 2.5, 1.0
# GPR35 antagonists, compounds 9 to 12: -3.5%, x, 6.8%, 2.1%
# GPR55 activation, compounds 9 to 12: -0.2%, x, -0.2%, -0.1%

# Next structures:
17) COc1cc2nc(N3CCN(C(=O)[C@@H]4CCCO4)CC3)nc(N)c2cc1OC
18) COC1=CC(=O)CC(C)C12Oc1c(Cl)c(OC)cc(OC)c1C2=O (stereo not given)
19) COc1ccc(Cl)cc1C(=O)NCCc1ccc(S(=O)(=O)NC(=O)NC2CCCCC2)cc1
20) CCNC(=S)NS(=O)(=O)c1ccccc1
21) COc1ccc(CCN2CCC(Nc3nc4ccccc4n3Cc3ccc(F)cc3)CC2)cc1
22) Clc1cccc(Cl)c1NC1=NCCN1
23) Cc1cnc(C(=O)OCC(=O)N(C(C)C)C(C)C)cn1
24) Cc1nnc(SCc2ccc(F)cc2Cl)s1

Assay by compound,17,18,19,20,21,22,23,24
GPR35 antagonists,-8.6%,-20.7%,-0.9%,29.9%,3.4%,-14.7%,16.6%,7.2%
NOD1 inhibition,21.2%,-46.9%,-38.8%,x,-62.1%,-15.4%,x,x
Myeloid diff MLP,i,i,i,i,u,x,i,i
Myeloid diff MLP GFP+ MAC1+ %,1.6,0.7,1.9,1.0,x,x,0.8,5.4
GPR55 LPI antagonism,5.8%,1.5%,2.8%,26.2%,30.3%,-6.5%,10.5%,14.9%
GPR55 activation,0.3%,-0.2%,-0.1%,-0.1%,0.1%,-0.5%,u,-0.2%
HIV peptide binding,0.4%,-0.2%,4.2%,-0.2%,-3.0%,-0.6%,-4.1%,-3.5%
NOD2 inhibition,15.9%,-20.1%,3.7%,10.3%,-9.0%,3.6%,2.8%,-38.0%

25) Cc1cccc(/C=N/n2c(C)nnc2C)c1
26) CC#C[C@]1(O)CC[C@H]2[C@@H]3CCC4=CC(=O)CCC4=C3[C@@H](c3ccc(N(C)C)cc3)C[C@@]21C
27) Cc1ccc(NS(=O)(=O)c2ccc(NC(=O)c3cccc(NC(=O)C(C)C)c3)cc2)cc1
28) CC(C)OC(=O)C(C)(C)Oc1ccc(C(=O)c2ccc(Cl)cc2)cc1
29) CNCCC=C1c2ccccc2CCc2ccccc21

Assay by compound,25,26,27,28,29
GPR35 antagonists,4.4%,-1.6%,1.2%,-3.5%,-10.4%
NOD1 inhibition,x,6.1%,x,-6.6%,-33.9%
Myeloid diff MLP,i,i,i,i,i
Myeloid diff MLP GFP+ MAC1+ %,0.8,3.1,0.9,1.6,3.5
GPR55 LPI antagonism,11.8%,58.6%,13.4%,10.4%,13.2%
GPR55 activation,0.5%,0.5%,-0.1%,0.5%,0.2%
HIV peptide binding,0.5%,-2.8%,-1.0%,-0.4%,2.4%
NOD2 inhibition,-10.7%,16.0%,33.7%,7.2%,-8.3%
